Screens: PubChem BioAssay, Johns Hopkins Ion Channel Center
Kir21 inh: blocks the mouse Kir2.1 inward-rectifier potassium channel. P35561. HEK293-Kir2.1, FluxOR thallium flux fluorescence; active compounds read low. B-score at 10 µM. 0.85% of 310,000 active;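 active = fluorescence ratio B-score at or below minus 3 SD of library scores, with starting-brightness B-score within 2 SD, cut at about -4.2 in these data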;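 note: channel flux triggered by added potassium and thallium sulfate stimulus; B-score of peak minus minimum fluorescence over baseline after thallium stimulus; more negative B-score means stronger Kir2.1 block with less thallium influx; some compounds called inactive have numbers as strong as hits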
Target sequence (P35561 whole entry, looked up): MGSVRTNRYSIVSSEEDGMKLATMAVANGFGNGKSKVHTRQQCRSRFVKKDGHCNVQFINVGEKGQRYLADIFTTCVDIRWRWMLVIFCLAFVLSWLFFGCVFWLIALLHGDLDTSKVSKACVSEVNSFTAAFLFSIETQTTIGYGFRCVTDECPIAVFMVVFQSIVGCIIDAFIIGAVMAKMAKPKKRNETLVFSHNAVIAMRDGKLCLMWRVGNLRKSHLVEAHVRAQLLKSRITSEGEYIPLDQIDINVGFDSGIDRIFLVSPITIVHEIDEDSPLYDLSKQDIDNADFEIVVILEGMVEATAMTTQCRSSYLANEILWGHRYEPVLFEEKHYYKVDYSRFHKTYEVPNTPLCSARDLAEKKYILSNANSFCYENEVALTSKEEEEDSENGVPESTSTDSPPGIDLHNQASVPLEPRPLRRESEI
An asterisk follows results filed as active; & = joins results of further samples. This is a subset; most or all hits stand in other tables.

Kir21 inh	SMILES
0.06	Cn1cnnc1SCC(=O)Nc1ccc2nc(SCc3ccccc3Cl)sc2c1
-0.35	COc1cc(CC(=O)NCC2COc3ccccc3O2)cc(OC)c1OC (stereo not given)
0	Cc1ccc(C)c(NC(=S)N2C3CCCC2CC(NC(=O)C2CC2)C3)c1 (stereo not given)
-0.17	COc1ccccc1OCC(=O)N1CCNC1=O
0.79	C[C@H](NC(=O)[C@@H]1CSC2c3ccccc3C(=O)N21)C(=O)NCCc1ccccc1 (stereo not given in full)
-2.2	Cc1cc(C)n(CC(=O)N2CCc3ccccc32)c(=O)c1C#N
-1.5	O=C(CSc1ncnc2c1cnn2-c1ccccc1Cl)N1CCN(C(=O)c2ccco2)CC1
-1.5	CCC1Oc2ccc(C)cc2N(CC(=O)NCC2COc3ccccc3O2)C1=O (stereo not given)
2.2	COc1cccc(NC(=O)Cn2c(=O)n(C)c(=O)c3sc4c(c32)COC(C)(C)C4)c1
-0.28	O=C(COC(=O)C1CCN(S(=O)(=O)c2c(Cl)cccc2Cl)CC1)NCc1ccco1
0.79	CN(C(=O)COC(=O)c1ccc2ccccc2n1)C1CCS(=O)(=O)C1 (stereo not given)
1.1	O=C(CSc1ccccc1)N1CCN(c2ccccn2)CC1
0.86	O=C(N/N=C/c1ccccc1)C(O)c1ccccc1 (stereo not given)
0.32	COc1cccc(NC(=O)COC(=O)c2c(F)cccc2F)c1
2.6	CCOc1ccc(CN2C(=O)c3ccccc3C2=O)cc1C(=O)N1CCC(C(N)=O)CC1
0.74	CCOc1ccc(NC(=O)c2cc(OC)nc3ccccc23)cc1
3.5	CCOc1ccc2c(c1)[nH]c(=S)n2C
-0.38	COc1ccc2cc(C(=O)O)ccc2c1
3.4	Cn1cnnc1SCC(=O)Nc1ccc(F)cc1
0.55	COc1ccc(NC(=O)c2cccc(Cl)c2)c[n+]1[O-]
-3.8	COc1cc(-c2nc(N)n[nH]2)cc(OC)c1OC
-0.03	CCc1ccc(NC(=S)NC2CC3CCC(C2)N3Cc2ccco2)cc1 (stereo not given)
0.02	COc1cc(/C=N\Nc2nncn2N)ccc1OC(C)=O
-0.1	O=C(c1ccc(CS(=O)(=O)c2c(Cl)cccc2Cl)o1)N1CCCC1
0.73	CC(=O)c1cccc(N(CC(=O)NCC2CCCO2)C(=O)CCC(=O)Nc2cc(C)on2)c1 (stereo not given)
0.99	N#Cc1c(N)n(CCNC(=O)c2ccc(Cl)cc2)c2nc3ccccc3nc12
-0.8	Cc1ccc(N2CC(C(=O)NC3=NCCS3)CC2=O)cc1C (stereo not given)
1.6	O=C(c1cc(-c2ccc(Br)cc2)nc2ccccc12)N1CCC1
-0.23	Cc1ccc(-c2nc(CS(=O)CC(=O)N3CCN(c4ccccc4)CC3)c(C)o2)cc1 (stereo not given)
1.1	O=C(N/N=C/c1ccncc1)c1ccc(-n2cccc2)cc1
-0.39	Cc1ccc(C(=O)NN(CCC#N)C2=NS(=O)(=O)c3ccccc32)cc1
-0.71	COc1ccc(NC(=O)NCCCCc2ccccc2)cc1
-3.1	O=C(O)c1cc(NCc2ccccc2C(F)(F)F)ccc1N1CCOCC1
2.6	COc1ccc(Cl)cc1C(=O)NNC(=O)CSc1nnnn1C
0.18	CCOC(=O)CNC(=O)CSc1nnc(NC(=O)c2ccc(C)cc2)s1
-0.18	Cn1c(=O)c2c(ncn2Cc2ccc(Cl)c(Cl)c2)n(C)c1=O
0.92	c1nnc(NC2=NCCCCC2)s1
2.3&-1.4	CCc1nn2c(N)c(/C=C3\C=Nc4ccccc43)c(=O)nc2s1
-1.6	Cc1ccc(CN(Cc2ccco2)C(=O)c2ccco2)cc1
-2.1	CC(=O)c1ccc(N2CCCCC2)c(F)c1
0.71	CN(CCOc1ccccc1)c1ccc(S(=O)(=O)N2CCCCC2)cn1
-1.8	O=C(Nc1c(-c2ccccc2)nc2ccccn12)c1cccs1
-0.12	Cc1ccc(/C=C/c2onc(C)c2S(=O)(=O)N2CCC(C(=O)NC(C)(C)C)CC2)cc1
1.1	Cc1ccccc1-c1nc2sc3c(c2c(=O)o1)CCC3
-3.9	O=c1n(Cc2ccc(F)cc2)nc2n1-c1ccccc1SC2
0.01	COc1cc(C2NC(=O)NC(C)=C2C(=O)OC(C)(C)C)ccc1OCC(=O)O (stereo not given)
0.15	COc1ccc(NC(=O)/C=C2\SC(=O)NC2=O)cc1
-0.47	COc1ccc(CCNC(=O)CN2CCN(c3cccc(Cl)c3)CC2)cc1OC
1.8	CCN(CC)S(=O)(=O)c1cc(NC(=O)c2cc(-c3ccccn3)nc3ccccc23)ccc1C
1.2	O=C(CCn1nnc2ccccc2c1=O)N[C@@H](Cc1ccccc1)C(=O)O
0.85	CC(C)C(OC(=O)c1ccco1)C(=O)NCc1cccs1 (stereo not given)
0	O=C(c1ccco1)N1CCN(Cc2nnnn2CC2CCCO2)CC1 (stereo not given)
-1.3	CC(C)(C)NC(=O)C(c1ccc(Cl)cc1)N(CCO)C(=O)c1snc(C(N)=O)c1N (stereo not given)
0.57	CCCCn1nnnc1NCc1ccc(N2CCCC2)cc1
-2.2	O=C(COc1ccc(S(=O)(=O)NCc2ccccc2)cc1Cl)NCc1ccncc1
-0.84	CCOC(=O)c1ccc(NC(=O)CSc2nc3ncccc3[nH]2)cc1
0.9	Cc1ccc(CNC(=O)C2CC(c3ccccc3F)=NO2)cc1 (stereo not given)
0.77	Cc1cc(C)cc(NC(=O)CSc2nnc(C3CC3)n2CC2CCCO2)c1 (stereo not given)
-0.08	CC1(c2nnc(Cc3ccccc3)o2)CC(c2cccnc2)=NO1 (stereo not given)
0.08	COc1cc(OC)cc(C(=O)NCc2ccc3[nH]c(C)cc3c2)c1

(list continues)
Kir21 inh	SMILES
0.02	COc1ccc(Cn2nnnc2CN2CCCCCC2)cc1
0.52	COc1cc([N+](=O)[O-])ccc1NC(=O)c1cccc(NC(=O)C(C)C)c1
-0.81	N#CCN1C(=O)C2CCCN2c2ccc(S(=O)(=O)N3CCOCC3)cc21 (stereo not given)
0.93	O=C(Nc1ccon1)c1cccc(S(=O)(=O)N2CCCCCC2)c1
0.77	O=C1c2ccccc2C(=O)N1CCSc1ncn[nH]1
1.4	CSc1cccc(NC(=O)c2ccc(NC3=NC4CS(=O)(=O)CC4S3)cc2)c1 (stereo not given)
-1.2	NS(=O)(=O)c1ccc(CCNC(=S)Nc2ccc(S(N)(=O)=O)cc2)cc1
0.91	CCN(CC)CCOC(=O)C12CC3CC(CC(C3)C1)C2
-3.2	Cc1cccc(OCCn2c(=O)n(C)c3ccccc32)c1
-0.28	Cc1ccc(-c2nc3ncccc3o2)cc1NC(=O)c1sc2ccccc2c1Cl
0.49	NC(=O)C1CCN(CC(=O)Nc2nc(-c3ccccc3)cs2)CC1
-0.93	CCN(CC)CCOc1cc2c(nn1)Oc1ccccc1N2C
0.99	O=C(CCC(=O)OCC(=O)c1ccc([N+](=O)[O-])cc1)Nc1ccccc1Cl
1.8	Cc1cc2c(ncn2C)c(NS(=O)(=O)c2cc(Cl)ccc2Cl)c1C
-1.6	O=C(OCc1cc(Cl)ccc1OC(F)F)c1cccnc1
1.4	c1ccc(Nc2nnc(-c3cccc4ccccc34)o2)cc1
-0.5	CC(NC(=O)COC(=O)CCc1nc2ccccc2c(=O)[nH]1)c1ccccc1 (stereo not given)
-0.04	COc1ccc([N+](=O)[O-])cc1NC(=O)c1cc(C)c(C)o1
0.72	Cc1ccccc1CSc1nc2[nH]ncc2c(=O)[nH]1
1.3	Cc1cccc(OCC(=O)OCC(=O)N(CC(C)C)c2c(N)n(Cc3ccccc3)c(=O)[nH]c2=O)c1C
-0.39	Cc1cc(C(=O)Nc2c(C)n(C)n(-c3ccccc3)c2=O)on1
-0.49	Cc1cccc(C)c1NC(=O)C1(N(C(=O)c2ccccn2)c2ccc(O)cc2)CCCCC1
0.21	CCc1ccc(NC(=O)CSCCN2C(=O)c3ccccc3C2=O)cc1
-1.4	CCc1c(C(=O)N/N=C/c2ccco2)nnn1-c1nonc1N
0.42	Cc1cc(C)n2cc(COc3ccc4ccccc4c3)nc2n1
-0.01	COCCn1cc(C(=O)N2CCCC(C)C2)c2c3ccccc3n(C)c2c1=O (stereo not given)
0.73	COc1ccc(C)c2sc(NNC(=O)COc3ccccc3)nc12
-0.35	C/C(=N/NC(=O)c1ccc(C)s1)c1cccnc1
1.7	CCSc1nnc(NC(=O)CN2C(=O)C3CC=CCC3C2=O)s1 (stereo not given)
-0.12	O=C(CSc1nc2c(c(=O)n1-c1ccc(Cl)cc1)SCC2)N1CCOCC1
-0.18	O=C(CSc1nc2nc(-c3cccs3)cc(C(F)(F)F)c2c(=O)[nH]1)NCc1ccco1
0.59	COc1ccc(N2C(=O)Cc3ccccc3C2=O)cc1
-0.05	CCN(c1ccc(OC)cc1)S(=O)(=O)c1nnc(NC(=O)C(C)C)s1
-0.66	COc1ccccc1NS(=O)(=O)c1cccc(C(=O)OCC(=O)NC2CC2)c1
-0.13	Cc1cccc(NC(=S)NCC(c2cccnc2)N2CCOCC2)c1C (stereo not given)
-0.62	CC(C)CC(=O)Nc1ccc(S(=O)(=O)NCc2ccco2)cc1
-0.87	COc1ccccc1NC(=O)c1ccccc1C(=O)Nc1ccccc1OC
-1.6	COc1ccc2cc(OCC(=O)NNC(=O)Nc3ccc(C(C)=O)cc3)ccc2c1
0.61	O=C(c1ccccc1F)N1CCN(c2ccccc2)CC1
0.19	CCCCSc1nc(C(=O)O)cc(=O)[nH]1

A different layout for part of the listing above:
SMILES	Kir21 inh
CCc1c(C(=O)N/N=C/c2ccco2)nnn1-c1nonc1N	-1.4
Cc1cc(C)n2cc(COc3ccc4ccccc4c3)nc2n1	0.42
COCCn1cc(C(=O)N2CCCC(C)C2)c2c3ccccc3n(C)c2c1=O (stereo not given)	-0.01
COc1ccc(C)c2sc(NNC(=O)COc3ccccc3)nc12	0.73
C/C(=N/NC(=O)c1ccc(C)s1)c1cccnc1	-0.35
CCSc1nnc(NC(=O)CN2C(=O)C3CC=CCC3C2=O)s1 (stereo not given)	1.7
O=C(CSc1nc2c(c(=O)n1-c1ccc(Cl)cc1)SCC2)N1CCOCC1	-0.12
O=C(CSc1nc2nc(-c3cccs3)cc(C(F)(F)F)c2c(=O)[nH]1)NCc1ccco1	-0.18
COc1ccc(N2C(=O)Cc3ccccc3C2=O)cc1	0.59
CCN(c1ccc(OC)cc1)S(=O)(=O)c1nnc(NC(=O)C(C)C)s1	-0.05
COc1ccccc1NS(=O)(=O)c1cccc(C(=O)OCC(=O)NC2CC2)c1	-0.66
Cc1cccc(NC(=S)NCC(c2cccnc2)N2CCOCC2)c1C (stereo not given)	-0.13
CC(C)CC(=O)Nc1ccc(S(=O)(=O)NCc2ccco2)cc1	-0.62
COc1ccccc1NC(=O)c1ccccc1C(=O)Nc1ccccc1OC	-0.87
COc1ccc2cc(OCC(=O)NNC(=O)Nc3ccc(C(C)=O)cc3)ccc2c1	-1.6
O=C(c1ccccc1F)N1CCN(c2ccccc2)CC1	0.61
CCCCSc1nc(C(=O)O)cc(=O)[nH]1	0.19

Following part:
Kir21 inh	SMILES
-2.1	O=C(CSc1nccn1Cc1ccco1)Nc1ccc(F)cc1
-0.53	CCC1(CC)C(=O)NC(=O)NC1=NCCc1ccc(O)cc1
-0.44	O=C1CSC(c2ccccc2)N1c1ccc([N+](=O)[O-])cc1 (stereo not given)
-0.62	C/C(CC(=O)NCCCN1CCOCC1)=N\NC(=O)COc1ccc(Cl)cc1
1	N=C1C(c2nc3ccccc3[nH]2)=C(O)CN1c1ccc(CC(=O)O)cc1
1.2	O=c1c(-c2cnn(-c3ccccc3)c2)coc2cc(O)ccc12
-0.12	COc1ccc(OC)c(NC(=O)c2ccccc2SC)c1
-0.07	N#Cc1cnc(Nc2nc3ccccc3o2)nc1-c1ccccc1
-0.6	COc1ccc(Nc2nnc(SCC(=O)NC(=O)Nc3ccc4c(c3)OCCO4)s2)cc1
0.01	O=C(N/C(=C\c1ccc(Br)cc1)C(=O)N1CCCC1)c1cccs1
-1.5	Cc1nc2cc(CO)ccc2n1C
1.4	Cc1occc1-c1nnc(SCC(=O)N2CCN(c3ccccc3)CC2)n1C
-0.44	Cc1ccccc1C(=O)NC(=S)NCCN1CCOCC1
-2.5	O=C(NCCS(=O)(=O)N1CCN(c2ccccc2F)CC1)c1c(F)cccc1F
-1.8	COc1cccc(CNC(=O)CCC2CCCN(Cc3ccc(OC(F)F)cc3)C2)c1 (stereo not given)
-1.4	O=C(N/N=C/c1cccc(O)c1)c1ccc(COc2ccccc2Br)cc1
0.62	CCC(=O)NC(c1cccc([N+](=O)[O-])c1)c1c(OC(C)=O)ccc2ccccc12 (stereo not given)
0.15	CCC(C)(C(=O)NC1CCCCC1)N(Cc1cccs1)C(=O)CC1NC(=O)NC1=O (stereo not given)
-1	COc1cccc(NC(=O)Nc2ccc3nc(C)c(C)nc3c2)c1
-1	COC(=O)C(NC(=O)c1cccnc1Cl)C(C)C (stereo not given)
0.6	COc1ccc(-c2nc(C(N)=O)c3[nH]c(=O)n(-c4cccc(C)c4)c3n2)c(OC)c1
-0.88	Cc1nc2ccccc2c(=O)n1NS(C)(=O)=O
0.33	Cc1cc(C)c(S(C)(=O)=O)c(Oc2ccc(F)cc2)n1
-1.4	COc1ccc(OC)c(S(=O)(=O)NCCOC23CC4CC(CC(C4)C2)C3)c1
-2.5	COc1cc(/C=C2\SC(=S)N(NC(=O)c3ccc(O)cc3)C2=O)ccc1O
0.67	O=C(O)c1ccc(Cl)c(S(=O)(=O)N2CCCCCC2)c1
0.04	CC1=C(C(=O)OCC2CCCO2)C(c2ccccc2OC(C)C)C2=C(CC(c3ccco3)CC2=O)N1 (stereo not given)
-1.7	CC1(C)NC(=O)N(CCOCCOc2cccc(Oc3ccccc3)c2)C1=O
1.9	CCCC[n+]1ccn(-c2nc3ccccc3nc2[N-]S(=O)(=O)c2ccc(Cl)cc2)c1
-2.8	COc1ccccc1CN1C[C@@H]2C[C@@H](c3[nH]c4ccc(C)cc4c3C)N3CCC[C@@]23C1=O
-1.7	COc1ccc(CNC(=O)c2nn(C)c3c2CS(=O)(=O)c2ccccc2-3)cc1
